Compound activity as filed in PubChem.
Mtb growth – Confirmatory growth inhibition assay against Mycobacterium tuberculosis H37Rv, potency (AID 1949) | most inactive calls were filed without a number and no value below 0 was filed | one-dose inhibition, % at 10 µg/mL; IC50 in µg/mL for titrated hits | 100,000 tested, 1.6% active;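 active means confirmed in a dose series; inconclusive means about 50% or more but not retested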;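 further: bacteria grown 7 days with compound before Alamar blue readout; 0% = untreated bacteria and 100% = reference antibiotic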
An asterisk follows results filed as active; i = inactive; ? = inconclusive. This is a subset, so the mix of outcomes need not match the whole.

mol,Mtb growth
O=C(Nc1ccc(N2CCN(Cc3ccccc3F)CC2)cc1)c1cc(Br)ccc1Cl,i
CC(=O)N1CCc2ccc(S(=O)(=O)N3CCCc4ccccc43)cc21,i
Cc1nn(Cc2c(F)c(F)c(F)c(F)c2F)c(C)c1NC(=O)Nc1cccc(Cl)c1Cl,i
O=c1[nH]c2ccc(Cl)cc2c(-c2ccccc2)c1N1CCOCC1,i
Cc1scc(C(=O)NCCCn2ccnc2)c1-c1ccccc1,37%
CN(Cc1ccccc1)S(=O)(=O)c1ccc2c3c(cccc13)C(=O)N2,i
O=C(NCCN1CCCC1)c1cc2ccccc2o1,i
O=C(Nc1cccnc1)c1cc2c(s1)CCCCCC2,i
COCc1cc(=O)[nH]c(SCC(=O)Nc2ccc(Cl)cc2Cl)n1,i
Cn1nnc(C(O)CNCc2ccc(F)cc2)n1 (stereo unspecified),i
O=C(Nc1ccc(S(=O)(=O)N2CCCC2)cc1)Nc1ccc(F)cc1F,1%
O=C(O)CCCC(=O)Nc1ccc(C(=O)N2CCCCC2)cc1,i
OC(COc1ccc2c(c1)CCC2)Cn1cnc2ccccc21 (stereo unspecified),38%
CCC(C)c1ccc(OCCCCN2CCOCC2)cc1 (stereo unspecified),2%
CCOc1ccccc1NC(=O)c1ccccc1N(C)S(C)(=O)=O,i
COc1ccc(C(=O)NC(=S)NCc2ccco2)cc1Br,i
CCc1cc(=O)oc2cc3occ(C)c3cc12,i
CC(C)(CO)NCc1c(F)cccc1Cl,i
Cn1cccc1/C=C(\C#N)c1ccccc1,i
COc1ccc(N(CC(=O)Nc2c(C)cc(C)cc2C)S(C)(=O)=O)cc1,i
COC(=O)c1ccc(CSc2nnc(-c3cccc(OC)c3)n2-c2ccccc2)cc1,i
CC(=O)Nc1ccc(N2C(=O)CC(N3CCN(c4ccc([N+](=O)[O-])cc4)CC3)C2=O)cc1 (stereo unspecified),i
CN(c1cccc(NC(=O)CN(c2ccc(Oc3ccccc3)cc2)S(C)(=O)=O)c1)S(C)(=O)=O,i
COc1cc(OC)c(NC(=O)COc2cc(C)c(Br)c(C)c2)cc1Cl,2%
O=C(CSc1nnnn1-c1cccc(Cl)c1)Nc1ccc2c(c1)CCC2,i

More structures follow.
mol,Mtb growth
O=C(Nc1ccc(NC(=O)C(Cl)Cl)cc1)C(Cl)Cl,?
CCN(CC)S(=O)(=O)c1ccc(-c2csc(NC(=O)c3ccccc3)n2)cc1,i
Cc1ccc(C)c(OCC(=O)Nc2ccc(OCc3ccccc3)cc2)c1,3%
CCN(CC)c1ccc(NC(=S)NC(=O)c2ccc(Br)cc2)c(C)c1,i
CCOc1ccc(N(CC(=O)Nc2cccc(F)c2)S(C)(=O)=O)cc1,i
S=C(NC1CCCC1)N1CCN(c2ccccc2)CC1,i
CCc1nnc(NC(=O)Cc2ccc(OC)c(OC)c2)s1,i
CCc1ccc(C(=O)NC(CC(C)C)C(=O)Nc2cc(C)on2)cc1 (stereo unspecified),i
CCOc1ccccc1OC(=O)COc1cccc(Cl)c1,5%
CCC(=O)Nc1cccc(C(=O)c2ccc(C)c(C)c2)c1,28%
CCOc1cc(C2NC(=S)NC(C)=C2C(C)=O)cc(I)c1O (stereo unspecified),i
O=C(Nc1ccc(Cl)cn1)c1ccc([N+](=O)[O-])cc1Cl,0%
CN(C)N1C(N)=C(C#N)C(c2ccccc2C(F)(F)F)C2=C1CC(C)(C)CC2=O (stereo unspecified),i
Cc1ccc(NC(=S)Nc2cccnc2)c(Br)c1,i
Cc1ccc(SCc2cc(=O)n3[nH]c(C)nc3n2)cc1,i
COc1cccc(S(=O)(=O)NCc2ccc(C(=O)Nc3cccnc3)cc2)c1,2%
O=C(CSc1nnc(NC(=O)CCc2ccccc2)s1)NCc1ccccc1,i
CCC(C)c1ccc(O)c(NC(=S)NC(=O)c2cncc(Br)c2)c1 (stereo unspecified),<0.1µg/mL*
CCN(C(=S)NC(=O)C1CC1)c1ccccc1,1%
CCc1ccc(C(=O)N2CCN(c3ccc([N+](=O)[O-])c(-n4nc(C)cc4C)c3)CC2)cc1,1%
COc1ccc(N2CCN(C(=O)Cc3cccs3)CC2)cc1,i
CCC(C)c1ccccc1NC(=O)Cc1ccc(C)cc1 (stereo unspecified),1%
COc1cc(CCN2C(=O)c3cccc4cccc(c34)C2=O)c(S(=O)(=O)NC2CCS(=O)(=O)C2)cc1OC (stereo unspecified),i
O=C(O)c1ccc2c3c(cccc13)C(=O)N(O)C2=O,i
CCOCCCn1c(=N)c(C(N)=S)cc2c(=O)n3cccc(C)c3nc21,i

Later entries.
mol,Mtb growth
CC(C)CCSc1nc2c(c(=O)[nH]1)C(c1cccc(F)c1)C1=C(CCCC1=O)N2 (stereo unspecified),2%
Cc1cc(/C=C(\C#N)C(N)=S)c(C)c(CN2CCOCC2)c1,i
COc1ccccc1NC(=O)c1c(NC(=O)c2ccccc2C)sc2c1CCCC2,i
COc1ccc(Cl)cc1NC(=S)Nc1cccc(C)c1,i
C=CCN1C(=O)C(CC(=O)Nc2ccc(Cl)cc2)N(CCc2ccccc2)C1=S (stereo unspecified),4%
NC(=O)CSc1ncnc2sc3c(c12)CCC3,i
CC(=O)Nc1nc(C)nc(-c2ccccc2OC(C)=O)n1,1%
Cc1ccc(OCC(=O)Nc2sc3c(c2C(N)=O)CCC(C)C3)c(C)c1 (stereo unspecified),i
C=CCN(CC=C)CCOc1cccc(C(F)(F)F)c1,i
O=C(c1ccc2nc(-c3ccccc3)c(-c3ccccc3)nc2c1)N1CCCCC1,?
COc1ccc2nc(NC(=S)NC(=O)c3cccs3)sc2c1,i
CC(C(N)=O)N(c1ccc(Cl)cc1)S(C)(=O)=O (stereo unspecified),i
COc1ccc(/C=C(/C#N)C(N)=O)cc1,0%
COc1ccc(N(CC(=O)NCCSC2CCCCC2)S(C)(=O)=O)c(OC)c1,i
CCCCOc1ccc(I)cc1CO,2%
CCOC(=O)CC1CSc2nc3sc(C)c(C)c3c(=O)n21 (stereo unspecified),i
COc1cc(C2C3=C(CC(C)(C)CC3=O)Nc3[nH]c(=S)[nH]c(=O)c32)ccc1OC(C)C (stereo unspecified),5%
COc1ccccc1C(=O)Nc1ccc(N(C)C(C)=O)cc1,i
CCN(C(=O)COc1ccc(C)cc1Br)c1ccccc1,i
Cn1c(/C(C#N)=C/c2ccco2)nc2ccccc21,i
CCOc1cc(C(=O)NC(=S)Nc2ccc(NC(=O)Cc3ccccc3)cc2)cc(OCC)c1OCC,i
O=CN1CCN(C(=O)c2ccc(Cl)cc2[N+](=O)[O-])CC1,i
CCS(=O)(=O)Nc1ccc(C2=NN(S(C)(=O)=O)C(c3cccc(F)c3)C2)cc1 (stereo unspecified),i
COc1ccc(N2C(=O)CC(N3CC(C)OC(C)C3)C2=O)cc1 (stereo unspecified),i
CCOC(=O)c1c(NC(=O)c2ccco2)sc(C)c1C,i

Another view of some results above:
> O=CN1CCN(C(=O)c2ccc(Cl)cc2[N+](=O)[O-])CC1
- Mtb growth = i
> CCS(=O)(=O)Nc1ccc(C2=NN(S(C)(=O)=O)C(c3cccc(F)c3)C2)cc1 (stereo unspecified)
- Mtb growth = i
> COc1ccc(N2C(=O)CC(N3CC(C)OC(C)C3)C2=O)cc1 (stereo unspecified)
- Mtb growth = i
> CCOC(=O)c1c(NC(=O)c2ccco2)sc(C)c1C
- Mtb growth = i

More records follow:
mol,Mtb growth
CCCCc1nc(SCC(=O)Nc2ccc(S(N)(=O)=O)cc2)n[nH]1,i
S=c1[nH]nc(COc2cccc3ccccc23)n1-c1ccccc1,i
Cc1nnc(SCC(=O)Nc2ccccc2F)s1,i
O=C(COc1ccccc1[N+](=O)[O-])Nc1ccccc1N1CCCC1,6%
Cc1cc(C)n(C(=O)COc2ccccc2-c2ccccc2)n1,i
CCOc1ccc(NC(=O)CC2C(=O)N(c3cccc(Cl)c3)C(=O)N2Cc2ccc(OC)cc2)cc1 (stereo unspecified),7%
COc1ccc(-n2c(SCc3ccc(C#N)cc3)nc3ccccc3c2=O)cc1,i
CCc1cccc(CC)c1NC(=O)COc1cc(C)cc(C)c1,i
O=S(=O)(c1ccc(I)cc1)N1CCN(c2ccccc2F)CC1,i
Cc1ccc(-c2c(C(=O)NNC(=S)Nc3ccc4c(C)cc(=O)oc4c3)csc2C)cc1,0%
Cc1c(C(=O)N2CCN(c3ncccn3)CC2)oc2ccccc12,i
CCOc1cc(C(=O)NC(C)c2ccc(CC)cc2)cc(OCC)c1OCC (stereo unspecified),6%
Cn1c(=O)c2c(nc(SCc3c(Cl)cccc3Cl)n2C)n(C)c1=O,6%
COc1ccccc1C(=O)Nc1ccc(N2CCN(C(=O)c3ccccc3C)CC2)cc1,6%
CCC(C)Oc1ccc(C(=O)NC(=S)Nc2ccc3c(c2)C(=O)N(C)C3=O)cc1 (stereo unspecified),i
CC1CC(C)CN(C2CCN(C(=O)c3cccc(F)c3)CC2)C1 (stereo unspecified),i
CCn1c(SCC(=O)Nc2c(C)cc(Br)cc2C)nnc1-c1ccncc1,i
CC(C)c1ccccc1NC(=O)C1CC=CCC1C(=O)O (stereo unspecified),i
COc1ccc(NC(=O)CSc2nnc(-c3ccccc3C)o2)cc1,i
CCOc1ccc(S(=O)(=O)NCc2ccco2)c(C)c1C,i
Brc1ccc(-c2noc(-c3cccs3)n2)cc1,i
O=c1c2cc(I)ccc2nc(/C=C/c2ccco2)n1-c1ccccc1,1%
COc1cc2c(cc1OC)C(NNC(=O)c1ccco1)=NC(C)(C)C2,i
C=CCc1cc(OC)ccc1OCCN1CCCC1,i
CS(=O)(=O)N(CC(=O)Nc1ccccc1C(=O)NC1CCCCC1)c1ccc(Cl)c(Cl)c1,i

Next part
mol,Mtb growth
Cc1cccc(COc2ccc(/C=C/[N+](=O)[O-])cc2)c1,21µg/mL*
CS(=O)(=O)N(CC(=O)Nc1ccccc1C(F)(F)F)c1cccc([N+](=O)[O-])c1,i
Cc1cccc(-c2noc(CCC(=O)NCc3ccco3)n2)c1,i
NC1=NC(=O)CC(C(=O)Nc2ccccc2Cl)S1 (stereo unspecified),i
O=C(Nc1cccc(Cl)c1N1CCOCC1)c1cccnc1,i
CCOc1ccccc1NS(=O)(=O)c1ccc(OC)c(Cl)c1Cl,i
COC(=O)c1c(NC(=O)/C=C/C(=O)O)sc(C)c1-c1ccc(C)cc1,i
O=C1Nc2ccc(S(=O)(=O)NCCCO)c3cccc1c23,i
CCOc1cc(C2C(C(=O)OCc3ccccc3)=C(C)N=C3SC(C)C(=O)N32)ccc1OC(C)=O (stereo unspecified),i
O=S(=O)(CCc1nnc(-c2ccccc2)o1)c1ccc(Cl)cc1,i
CCOc1ccccc1C(=S)N1CCN(CCO)CC1,i
COC(=O)c1sc2nc(N3CCCCC3)c3c(c2c1N)CC(C)(C)OC3,i
CCOC(=O)C1=C(C)OC(N)=C(C#N)C1c1ccc(C)cc1C (stereo unspecified),i
N#C/C(=C\Nc1ccc(C(N)=O)cc1)c1nc(-c2ccccc2)cs1,i
O=C(NC(=S)Nc1nc(-c2cccc3ccccc23)cs1)c1cc2ccccc2o1,i
NCC(O)COc1ccc2c(c1)OCO2 (stereo unspecified),i
Cn1cc(CNC(=S)NCc2ccc(Cl)cc2)cn1,i
CCN(C(=O)CSc1nnnn1-c1ccccc1)c1ccccc1,i
O=C(CSc1nnc(-c2ccccn2)n1-c1ccccc1)Nc1ccc(Br)cc1,i
Cc1cccc(-c2nnc(SCC(=O)Nc3cccc(C)c3C)n2C)c1,3%
CCCCOc1ccc(NC2=NC3(CCCC3)N=C(N)N2)cc1,i
CCOc1ccccc1Oc1coc2cc(OC(=O)N(C)C)ccc2c1=O,2%
COc1ccccc1/C=N/N=C1/NC(=O)C(Cc2cccc(C)c2)S1 (stereo unspecified),i
CCOC(=O)C12C(=O)OC(C)(C)C1C2(CC)C(=O)c1ccc(C(C)(C)C)cc1 (stereo unspecified),i
COc1ccc(C)cc1S(=O)(=O)Nc1cccc([N+](=O)[O-])c1,i

(further entries)
mol,Mtb growth
Cc1cc(C)c(OCC(=O)Nc2nc(-c3ccc(S(=O)(=O)N4CCOCC4)cc3)cs2)c(C)c1,13%
CC(O)c1nc2ccccc2n1Cc1cccc2ccccc12 (stereo unspecified),i
CCOc1cc(CNCCO)cc(Br)c1OCc1cccs1,i
Cc1cccc(NC(=O)C2CC2c2ccccc2)c1C (stereo unspecified),i
Cc1cc(C)c(S(=O)(=O)Nc2ccccc2C(=O)NCc2ccco2)c(C)c1,i
CC(C)(C)c1ccc(C(=O)N2CC(=O)Nc3ccccc32)cc1,5%
COc1cc(COCC(O)CN2CCc3ccccc3C2)cc(OC)c1OC (stereo unspecified),i
CC(C(=O)O)n1cnc2scc(-c3ccc(Br)cc3)c2c1=O (stereo unspecified),i

Reformatted: 4 of the compounds above
> CCOc1cc(CNCCO)cc(Br)c1OCc1cccs1
- Mtb growth: i

> Cc1cccc(NC(=O)C2CC2c2ccccc2)c1C (stereo unspecified)
- Mtb growth: i

> Cc1cc(C)c(S(=O)(=O)Nc2ccccc2C(=O)NCc2ccco2)c(C)c1
- Mtb growth: i

> CC(C)(C)c1ccc(C(=O)N2CC(=O)Nc3ccccc32)cc1
- Mtb growth: 5%
